KCNQ2 inh: KCNQ2 channel blockers in CHO-K1 cells – cell-based, FluxOR thallium flux, B-score, primary screen (AID 2156) | O88943 | 20 min; hits give low values; only compounds with negative scores are shown here; some inactives read as strong as hits | B-score at 10 µM | actives 1.1% (n = 310,000);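 active = fluorescence ratio B-score at most minus 3 library SDs, with starting brightness B-score within 2 library SDs, cut at about -5.5 in these data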
Target sequence (O88943 whole entry, looked up): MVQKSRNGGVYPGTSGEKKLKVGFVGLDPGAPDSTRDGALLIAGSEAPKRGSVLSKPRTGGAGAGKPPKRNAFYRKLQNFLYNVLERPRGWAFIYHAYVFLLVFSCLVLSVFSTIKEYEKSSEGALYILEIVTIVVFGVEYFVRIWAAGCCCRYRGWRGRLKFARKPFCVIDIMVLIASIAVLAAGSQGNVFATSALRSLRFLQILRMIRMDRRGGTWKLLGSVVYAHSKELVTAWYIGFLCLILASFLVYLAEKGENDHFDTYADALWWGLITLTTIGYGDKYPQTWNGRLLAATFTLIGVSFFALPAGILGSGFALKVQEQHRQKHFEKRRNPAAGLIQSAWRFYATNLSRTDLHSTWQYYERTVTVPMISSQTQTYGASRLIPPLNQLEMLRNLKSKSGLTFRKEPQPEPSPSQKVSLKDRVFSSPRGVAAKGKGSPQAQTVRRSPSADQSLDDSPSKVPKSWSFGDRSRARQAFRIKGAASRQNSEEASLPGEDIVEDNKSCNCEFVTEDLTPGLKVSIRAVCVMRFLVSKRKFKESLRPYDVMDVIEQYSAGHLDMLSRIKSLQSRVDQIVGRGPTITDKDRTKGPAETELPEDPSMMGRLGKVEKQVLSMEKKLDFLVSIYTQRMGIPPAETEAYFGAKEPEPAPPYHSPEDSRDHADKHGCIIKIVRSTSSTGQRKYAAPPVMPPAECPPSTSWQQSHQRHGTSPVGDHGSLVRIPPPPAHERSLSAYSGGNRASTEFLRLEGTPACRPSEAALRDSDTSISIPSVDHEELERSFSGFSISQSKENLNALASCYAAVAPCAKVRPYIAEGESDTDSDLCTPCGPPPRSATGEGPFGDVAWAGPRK
KCNQ2 inh baseline: also measured in KCNQ2 inh; calls as there; B-score; measured here: initial fluorescence intensity artifact check;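 brightness before thallium and not channel activity; 0 = typical well and far values either way flag optical interference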
Numbers without * were called inactive; i = inactive. This is a subset; count on the stated rates, not on these rows.

Values in the order: KCNQ2 inh	KCNQ2 inh baseline
CC1(C)CC(N(Cc2ccco2)C(=O)Cc2ccccc2)CCO1 (stereo not drawn)
 : i	-0.23
CCOC(=O)C1CCN(C(=O)CCS(=O)(=O)c2ccc3c(c2)CCN3C(C)=O)CC1
 : i	-0.03
COc1ccc(NS(=O)(=O)c2ccc3oc(SC)nc3c2)cc1
 : i	0.55
Cn1c(CSCc2ccccc2Cl)nnc1SCC(=O)Nc1nccs1
 : i	1.39
NC(=O)c1c(NC(=O)Cc2cccs2)sc2c1CCC2
 : i	-0.85
COc1ccc(-n2ncc(C(=O)N3CCN(c4ccc(F)cc4)CC3)c2C)cc1
 : i	0.21
CN(CCOC(=O)c1ccco1)Cc1ccccc1
 : i	0.96
CN1CCN(C(=O)c2cnn3c(C(F)F)cc(C4CC4)nc23)CC1
 : i	0.41
O=S(=O)(NC(=NC1CCCCC1)c1ccccc1F)c1ccccc1
 : i	0.34
COc1ccc(S(=O)(=O)N(C)CC(=O)N2CCCC2)cc1
 : i	-0.25
C[C@@H](C(=O)N1CCN(C(=O)OC(C)(C)C)CC1)n1cc(CCC(=O)O)nn1
 : i	0.66
CCN1/C(=C/C(C)=O)Sc2ccc(OC)cc21
 : i	2.52
COCCNC(=O)c1ccccc1NC(=O)Cc1ccccc1
 : i	0.02
O=C(O)CCC(=O)Nc1ccc(N2CCCCC2)c(C(=O)O)c1
 : i	3.86
O=C(NCCCl)Nc1ccccc1OCCOc1ccccc1NC(=O)NCCCl
 : i	2.85

One compound at a time, from the list above:
COc1ccc(NS(=O)(=O)c2ccc3oc(SC)nc3c2)cc1 across the screens: KCNQ2 inh: i; KCNQ2 inh baseline: 0.55
COc1ccc(S(=O)(=O)N(C)CC(=O)N2CCCC2)cc1 across the screens: KCNQ2 inh: i; KCNQ2 inh baseline: -0.25

(further entries)
Values in the order: KCNQ2 inh	KCNQ2 inh baseline
CC(C)NC(=O)[C@@H]1CSC2c3ccccc3C(=O)N21 (stereo partly drawn)
 : i	0.67
COc1ccc(Cl)cc1C(=O)n1nc(C)cc1C
 : i	-0.03
COc1ccc(-c2noc(CN(C)S(=O)(=O)c3ccc(C)cc3)n2)cc1
 : i	-0.05
COc1ccccc1OCC(O)Cn1c(=N)n(CCN2CCCCC2)c2ccccc21 (stereo not drawn)
 : i	-2.04
COC(=O)c1ccc(NC(=O)CN2CCC(NC(=O)c3ccco3)CC2)cc1
 : i	1.57
CC(C)(C)c1cc2cccnc2n1Cc1cccc(F)c1
 : i	1.23
COc1ccc(OC)c(S(=O)(=O)N2CCC(C(=O)NC3CCCCCC3)CC2)c1
 : i	1.59
Cn1c(-c2ccc(C=O)s2)nc2c3ccccc3c3ccccc3c21
 : i	0.73
Cc1cccc(C)c1NC(=O)CSc1nc2c([nH]1)c(=O)n(C)c(=O)n2C
 : i	0.9
Cc1ccc(-c2nc(C)sc2CC(=O)OCC(=O)Nc2cccc([N+](=O)[O-])c2)cc1
 : i	2.26
Cc1onc(-c2ccccc2Cl)c1C(=O)N(C)CC(=O)Nc1ccc(F)c(F)c1F
 : i	1.45
N#Cc1c(NC(=O)c2cc([N+](=O)[O-])ccc2N2CCOCC2)sc2c1CCCC2
 : i	-0.15
CS(=O)(=O)N1CCC(C(=O)NCc2ccc(F)cc2)CC1
 : i	-1.68
Cc1nc(-c2ccc(F)cc2)c(CC(=O)N(C)CC(=O)Nc2ccc(Br)cc2C)s1
 : i	0.78
O=C(Nc1nc2ccccc2n1CCN1CCOCC1)c1ccc(Cl)cc1
 : i	1.18
CN1CCN(CC(=O)Nc2cc(S(=O)(=O)N3CCOCC3)ccc2Cl)CC1
 : i	-1.91
CCCCc1nc(C(N)=O)c2[nH]c(=O)n(-c3ccc(OCC)cc3)c2n1
 : i	2.87
COc1ccc(OC)c(NC(=O)c2ccccc2N(Cc2ccccc2)S(C)(=O)=O)c1
 : i	0.7
NS(=O)(=O)c1ccc(NC(=O)C2(c3ccccc3)CCCC2)cc1
 : i	0.55
COc1ccc(C(C(=O)NC2CCCC2)N(CCN2CCOCC2)C(=O)c2ccc(OC)c(OC)c2)cc1 (stereo not drawn)
 : i	-0.82
COc1ccc(C(=O)N2c3cc4c(cc3C(C)=CC2(C)C)OCO4)cc1
 : i	2.22
CC(C)C(NC(=O)c1ccccc1F)C(=O)NCc1ccccc1 (stereo not drawn)
 : i	-0.53
COc1cccc(OC)c1C(=O)Nc1cccc(-n2cnnn2)c1
 : i	2.28
Cc1ccc(O)c(NC(=O)c2cc(-c3cccs3)on2)c1
 : i	-1.34
O=C(COc1ncnc2sccc12)Nc1ccc2c(c1)OCCO2
 : i	-1.03
Cc1c(C(=O)NCCSCc2c(F)cccc2Cl)cnn1-c1ccc(F)cc1
 : i	-0.13
CCCC(=O)C1=C(O)C(C(=O)OC)C(C)(C)CC1=NC(C)(C)C (stereo not drawn)
 : i	1.38
C=C(C)COc1ccc(-c2ncncc2-c2ccc(Br)cc2)c(O)c1
 : i	1.4
COc1ccccc1CNC(=O)c1csc(Cc2ccc(Cl)cc2)n1
 : i	0.51
CC(=O)c1cccc(NC(=O)N2CCc3ccccc3C2)c1
 : i	0.92
Cc1cc(/C=N/NC(=O)c2ccc(CN3CCOCC3)cc2)c(C)n1-c1ccccc1
 : i	-1.02
Cc1ccc(CN(C(=O)N2CCN(C)CC2)S(=O)(=O)c2ccc(C)cc2)cc1
 : i	-1.1
Cc1ccc(CSc2nnc(CNc3ccc(F)cc3)o2)cc1
 : i	0.36
Cc1ccc(C(=O)c2ccc(N3CCOCC3)c(F)c2)cc1
 : i	1.93
CC(=O)Nc1ccccc1O
 : i	1.13
O=S(=O)(c1ccc(Cl)s1)N1CCCCC1
 : i	3.21
CC1(C)c2ccccc2N(CC(N)=O)C12C=Cc1ccccc1O2 (stereo not drawn)
 : i	-0.65
N#CCC(=O)N/N=C\c1ccc(OC/C=C/c2ccccc2)cc1
 : i	0.92
CC1CCCCN1S(=O)(=O)c1ccc(C(=O)Nc2nnc(C3=COCCO3)o2)cc1 (stereo not drawn)
 : i	-1.45
Cc1cc(-c2ccccc2)[nH]c(=O)c1S(=O)(=O)c1ccc(Cl)cc1
 : i	0.28
N#Cc1ccc(/C=C2\CCn3c2nc2cc(C(=O)O)ccc2c3=O)cc1
 : i	-0.06
O=C(NC1CCCCC1)[C@H](O)[C@@H](O)C(=O)NC1CCCCC1
 : i	0.03
COc1ccc(C(=O)c2c(NC(C)=O)sc3c2CCN(C(=O)OC(C)(C)C)C3)cc1
 : i	0.62
CCc1ccc(NC(=O)c2ccc3nc(N)sc3c2)cc1
 : i	-0.6
COCOc1ccc(/C=C2/Oc3cc(OCOC)cc(OCOC)c3C2=O)c(OCOC)c1
 : i	0.7

Further compounds.
Structure	KCNQ2 inh	KCNQ2 inh baseline
CCOC(=O)N1CCN(Cc2nnc(-c3ccccc3C)o2)CC1	i	2.38
S=c1[nH]nc(CSCCOc2ccc(Cl)cc2Cl)o1	i	-0.16
CSCC[C@H](NS(=O)(=O)c1ccc(C)cc1)C(=O)N1CCC(C(=O)N[C@@H](Cc2ccccc2)C(=O)O)CC1	i	2.34
CCc1cc2c(C)cc(C)cc2nc1SCC(=O)Nc1cc(C)on1	i	0.19
COc1ccccc1CN1CC(C(=O)NCc2ncccc2C)CCC1=O (stereo not drawn)	i	0.06
CC1C(=O)N2CCCc3cc(NC(=O)C(=O)NCc4cccnc4)cc1c32 (stereo not drawn)	i	0.81
O=C(CC12CC3CC(CC(C3)C1)C2)Nc1ccccc1N1CCOCC1	-6.85*	-0.74*
Cc1cc(-c2ccccc2)c2c3c(c(-c4ccccc4)n2n1)c(=O)n(C)c(=O)n3C	i	0.1
COc1cc2c(cc1OC)CN(C(=O)c1ccc(OC)c([N+](=O)[O-])c1)CC2	i	-0.16
COc1ccc2c(c1)c1ncn(CCc3ccccc3)c(=O)c1n2C	i	-0.24
COc1ccc(CCNC(=O)c2c(-c3ccccc3)noc2C)cc1OC	i	0.45
CCOc1ccc(CNc2ccc(S(N)(=O)=O)cc2)cc1	i	-0.7
CCOc1ccc(Nc2ncnc3c2cnn3Cc2ccccc2)cc1	i	0.39
Cc1ccc(C)c(Cn2nnc3c(=O)[nH]c(C(=O)NCC4CCCO4)nc32)c1 (stereo not drawn)	i	2.44
Cc1cnc2cc(Cl)c(Cl)cc2n1	i	0.83

Of the compounds above, three have a furan ring, fused or not:
Structure	KCNQ2 inh	KCNQ2 inh baseline
CC1(C)CC(N(Cc2ccco2)C(=O)Cc2ccccc2)CCO1 (stereo not drawn)	i	-0.23
CN(CCOC(=O)c1ccco1)Cc1ccccc1	i	0.96
COC(=O)c1ccc(NC(=O)CN2CCC(NC(=O)c3ccco3)CC2)cc1	i	1.57

(list continues)
Structure	KCNQ2 inh	KCNQ2 inh baseline
CCCc1cc(C(=O)Nc2cccc3ccccc23)n(C)n1	i	-0.32
CCCCNC(=O)[C@H](CSCc1ccccc1)N1Cc2ccccc2C1=O	i	0.26
CCOC(=O)c1ccccc1NC(=O)CSc1nc(N)cc(=O)[nH]1	i	-0.82
Cc1ccccc1OC/C(O)=C(\C#N)c1nc2ccccc2[nH]1	i	-1.24
CCc1ccc(NC(=O)CCn2ccnc2C)cc1	i	0.75
Cc1ccc(CNC(=O)Cc2nc3nc(C)cc(C)n3n2)cc1	i	-0.15
COc1ccc(CCC(C)NC2C3CC4CC(C3)CC2C4)cc1 (stereo not drawn)	i	0.97
COc1ccc(S(=O)(=O)N(CCc2ccccc2)CC(=O)N/N=C/c2ccc3c(c2)OCO3)cc1	i	0.6
O=C(/C=C/Nc1ccc(F)cc1F)c1ccco1	i	-0.11
CC(=O)Oc1ccc(C(=O)Nc2ccccc2NC(=O)c2ccc(OC(C)=O)cc2)cc1	i	0.79
Cc1ccc(N2C(=O)/C(=C/c3cccnc3)SC2=S)cc1	i	0.25
Cc1ccc(N2C(=O)C(c3c(C)[nH]n(-c4ccccc4)c3=O)(C(F)(F)F)C3=C2CC(C)(C)CC3=O)cc1 (stereo not drawn)	i	-1.26
CC(C)c1onc(C(=O)Nc2cccc(O)c2)c1[N+](=O)[O-]	i	-0.4
CC(=O)Oc1cccc(Nc2ncnc3ccccc23)c1	i	2.6
CCOc1ccc(Cc2c(Cl)nc(SC)nc2OC)cc1	i	1.41

Five records picked at random from those above:
Structure	KCNQ2 inh	KCNQ2 inh baseline
Cc1ccc(N2C(=O)C(c3c(C)[nH]n(-c4ccccc4)c3=O)(C(F)(F)F)C3=C2CC(C)(C)CC3=O)cc1 (stereo not drawn)	i	-1.26
CCOC(=O)c1ccccc1NC(=O)CSc1nc(N)cc(=O)[nH]1	i	-0.82
Cc1ccc(N2C(=O)/C(=C/c3cccnc3)SC2=S)cc1	i	0.25
CC(=O)Oc1ccc(C(=O)Nc2ccccc2NC(=O)c2ccc(OC(C)=O)cc2)cc1	i	0.79
COc1ccc(CCC(C)NC2C3CC4CC(C3)CC2C4)cc1 (stereo not drawn)	i	0.97

Continuation:
Structure	KCNQ2 inh	KCNQ2 inh baseline
CN(C(=O)C1CCOC1)c1nnc(-c2cnccn2)s1 (stereo not drawn)	i	-0.49
NCCCNC(=O)c1ccc(/C=N/O)nc1	i	-0.24
CCOC(=O)c1ccc(NC(=S)N2CCN(c3ccccn3)CC2)cc1	i	1.37
COc1cc2cc(C(c3nnnn3C3CCCCC3)N(C)C3CCCCC3)c(=O)[nH]c2cc1OC (stereo not drawn)	-11.1*	-0.74*
N=C1/C(=C\c2ccc(Br)o2)C(=O)N=C2SC(CC(=O)N3CCOCC3)=NN12	i	-1.12
CC(=O)Nc1csc2ccccc12	i	1.61
CCOC(=O)N1CCN(C(=S)Nc2cccc(C)c2)CC1	i	-1.02
O=C(CN1CCN(Cc2ccc(Cl)cc2)C1=O)NCc1cccs1	i	0.3
CC1(C)CC(=O)CC(C2(O)C(=O)N(Cc3ccccc3)c3ccccc32)O1 (stereo not drawn)	i	0.93
O=C(NCC1CCN(S(=O)(=O)c2ccccc2)CC1)Nc1ccc(F)cc1F	i	0.59
COc1ccc(-c2c(C)n([O-])c(C)c(-c3ccccc3)[n+]2=O)cc1OC	i	0.03
CCOC(=O)c1ccc(NC(=O)Cn2nc(C)c3ccccc3c2=O)cc1	i	-0.44
Cc1cccc(NS(=O)(=O)c2ccc(NS(=O)(=O)c3cccs3)cc2)c1	i	-2.64
O=C(C1CCCN(Cc2ccccc2)C1)N1CCc2ccccc2C1 (stereo not drawn)	i	0.45
CC(=O)O[C@]1(C(C)=O)CC[C@H]2[C@@H]3C=CC4=CC(=O)C=C[C@]4(C)[C@H]3CC[C@@]21C	i	-0.37
O=C(CCc1ccccc1)NNC(=O)c1ccccc1Cl	i	2.55
COC(=O)c1ccc(-c2noc(CN(Cc3ccccn3)CC3CCCO3)n2)cc1 (stereo not drawn)	i	-0.13
Cc1noc(C)c1COC(=O)c1cc(C)n(-c2ccccc2)c1C	i	0.74
CCCCOC1CC(c2ccc(OCc3ccc(OC)cc3)c(OC)c2)N(C)O1 (stereo not drawn)	i	0.07
COc1cc2ccccc2cc1C(=O)Nc1ccc(N2CCOCC2)cc1	i	-0.15
O=C1c2ccccc2C(=O)N1CN(C(=O)COc1ccccc1)c1ccc(F)cc1	i	-0.03
Cc1ccc(-c2cc(C(=O)N/N=C/c3ccc(F)cc3)n[nH]2)o1	i	0.92
Cc1ccc2c(n1)sc1c(-c3ccccc3)c(C#N)c(N)nc12	i	0.02
Fc1ccc(F)c(NC2=NCCCCC2)c1	i	-1.1
CN(C)C(CNC(=O)c1cccc(C#N)c1)c1ccco1 (stereo not drawn)	i	0.71
OCC(O)CN1CCCC1 (stereo not drawn)	i	-0.59
O=[N+]([O-])C(/C=C(/Cl)[N+](=O)[O-])=C(N1CCCCC1)N1CCCCC1	i	-1.86
COc1ccc(CC(=O)OCCN(C)C)cc1	i	0.23
COc1ccc(CCN(C)C(=O)CSc2nc3ncc(Cl)cc3[nH]2)cc1OC	i	0.19
O=C(Cc1ccsc1)NNC(=O)c1ccccc1Cl	i	-1.9
COc1cc(CC(=O)Nc2cc(S(C)(=O)=O)ccc2Cl)cc(OC)c1OC	i	0.56
Cc1cc(-c2ccccc2)n(-c2ccc(C(=O)N3CCN(c4ncccn4)CC3)cc2)n1	i	0.16
CC1CCCC(NS(=O)(=O)c2ccc3c(c2)OCCO3)C1C (stereo not drawn)	i	-1.18
